AID504770: E. coli YBA685 growth inhibition, screen for V. cholerae RctB inhibitors | AID 504770 | E. coli YBA685 rctB-dependent plasmid, OD600 growth, 3 h; hits give low values | 130,000 compounds, 0.27% hits | z-score (no concentration beside the values);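 active = z-score under -2 on both plates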;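 note: wells of about 30 µL received 100 nL stock; score is relative to mean and SD of the test wells; the first replicate is given; strong numbers were not always called active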
Ba CapD inh: CapD enzyme inhibition; purified CapD enzyme, fluorescence intensity read-out; hits give low values; some hits fall short of the stated cut; z-score (no concentration beside the values); 140,000 compounds, 0.23% hits; AID 492967;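 active = z-score under -4 in either of two replicates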;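 note: stock transfer was 100 nL into about 40 µL; score is relative to mean and spread of the plate; one replicate is shown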
Active calls of the source: *; i = inactive; x = no result given. This is a subset. The share of hits here may be higher or lower than overall.

The opening three entries, to show the layout:
Fields: AID504770	Ba CapD inh
> Cc1ccc(N2C(=O)/C(=C\c3ccc(Br)cc3)S(=O)(=O)C2c2cccc([N+](=O)[O-])c2)cc1C (centres undefined)
    x	-0.48
> CCOC(=O)N1CCN(C(=O)/C=C/c2c(C)nn(-c3ccc(F)cc3)c2Cl)CC1
    0.1	x
> COc1ccccc1-c1csc(N)n1
    1.6	-0.26

The whole of this part (from the top)
Fields: AID504770	Ba CapD inh
> Cc1ccc(N2C(=O)/C(=C\c3ccc(Br)cc3)S(=O)(=O)C2c2cccc([N+](=O)[O-])c2)cc1C (centres undefined)
    x	-0.48
> CCOC(=O)N1CCN(C(=O)/C=C/c2c(C)nn(-c3ccc(F)cc3)c2Cl)CC1
    0.1	x
> COc1ccccc1-c1csc(N)n1
    1.6	-0.26
> COc1cccc(NC(=O)CSc2nc3ccccc3c(=O)n2CC2CCC(C(=O)NCc3ccco3)CC2)c1 (centres undefined)
    x	-1.2
> OC(C#CCN1CCOCC1)c1cccs1 (centres undefined)
    -0.1	-0.33
> N=C(N)Sc1cn(CCNC(=O)c2ccccc2)c2ccccc12
    -1.1	-0.49
> Cc1cc(C)n(C(=O)c2ccc(-c3ccccc3)cc2)n1
    0.2	0.33
> Cc1cc(C)c(C)c(C2=NON3N(C(=O)C(C)C)c4ccccc4N23)c1C
    x	-0.55
> CCC1CCCCN1C(=O)CSc1nc2c(c(=O)n1-c1ccccc1)SCC2 (centres undefined)
    0.65	-0.4
> N#CC(C#N)=C/C=C(\Sc1nnnn1-c1ccccc1)c1ccccc1
    -0.35	-0.7
> Cc1ccc(N/N=C/c2c(O)n(-c3ccccc3)c(=O)[nH]c2=O)cc1
    0	-1.4
> Cc1ccccc1C(=O)On1c(-c2ccc(Cl)c([N+](=O)[O-])c2)nc2ccccc2c1=O
    x	-0.47
> Cc1noc(C)c1C(=O)OC(C)C(=O)Nc1ccc(S(=O)(=O)NC(C)C)cc1 (centres undefined)
    -0.35	x
> CC(=O)N1CC(C)Sc2cc(S(=O)(=O)Nc3cccc(Cl)c3)ccc21 (centres undefined)
    -0.05	39
> O=C(c1ccncc1)N1N=C(c2c(-c3ccccc3)c3cc(Br)ccc3[nH]c2=O)CC1c1ccccc1 (centres undefined)
    x	0.52
> CCOc1ccc(/C(O)=C2/C(=O)C(=O)N(c3ccccc3)C2c2ccccc2)cc1 (centres undefined)
    x	1
> O=C(COC(=O)c1cc(C(F)(F)F)cc(C(F)(F)F)c1)NCC1CCCO1 (centres undefined)
    1.4	-0.17
> CCOc1ccc(C(=O)Nc2ccc(Cl)c(-c3nc4ccccc4o3)c2)cc1Br
    x	-0.21
> O=C(Nc1ccccc1)c1ccc(N2C(=O)C3C4C=CC(C4)C3C2=O)cc1 (centres undefined)
    -1	0.5
> CCN1CCN(Cc2cc(Br)c(O)c(OC)c2)CC1
    -0.1	0.29
> O=C(CN1C(=O)c2ccccc2C1=O)Nc1ccc2c(c1)OCO2
    -0.5	0.37
> C=CCC(Nc1ccc(F)cc1)c1ccco1 (centres undefined)
    0.9	-0.085
> COC(=O)c1cc(/C=C/C(=O)N(C(=O)NC2CCCCC2)C2CCCCC2)cn1C
    2.5	-0.68
> COC(=O)C1=C(NC(=O)CSCc2ccccc2)CCS1
    -1.1	-0.91
> CC(C)(C)c1ccc2c(c1)CN(Cc1ccccc1)CO2
    -0.55	0.56
> Cc1ccc(C(=O)NC(C)C(=O)OCc2ccccc2)cc1 (centres undefined)
    x	1.9
> Cc1c(Sc2nc3ccccc3[nH]2)c(=O)[nH]c2cc3c(cc12)OCO3
    -0.15	5.1
> O=C(NNc1ccc(OC(F)(F)F)cc1)c1ccccc1C(F)(F)F
    x	0.44
> COc1cc(-c2nc3ccccc3c(=O)n2CC(=O)Nc2ccc(F)cc2F)cc(OC)c1OC
    x	0.38
> COc1ccc(Cl)cc1NC(=O)/C(C)=C\C(=O)O
    -0.65	0.18
> CC(=O)Nc1ccc(C2=N/C(=C/c3cn(C(C)=O)c4ccccc34)C(=O)O2)cc1
    1.8	-0.77
> O=C(O)C1CCCN1C(=O)Nc1ccccc1 (centres undefined)
    -0.95	0.35
> CCOC(=O)c1c(NC(=O)C2CC2)sc2c1CCC2
    0	i
> Clc1cccc(Cl)c1CSC1=NCCCN1C1CCCCC1
    x	0.47
> COc1ccc(-c2[nH]ncc2C(=O)NCc2ccccc2)cc1
    -1.2	-0.93
> CCc1ccc(NC(=O)Cc2cn(C)c3ccccc23)cc1
    1.7	-0.075
> Cc1cc(C)nc(-n2ncc(Cl)c(Cl)c2=O)n1
    -0.55	x
> CCCc1cnc(N2CCN(CC(=O)Nc3ccc4c(c3)OCCO4)CC2)nc1
    -0.25	0.26
> O=C(CSc1nc2ccccc2c(=O)n1Cc1ccco1)Nc1ccccc1
    0.3	x
> FC(F)(F)c1nnc(-c2ccccc2)nc1Oc1ccccc1
    -0.45	0.46
> Cc1ccc2c(Sc3ccc(Cl)cc3)c(C(=O)NC(C)c3ccc4c(c3)OCCO4)[nH]c2c1 (centres undefined)
    -0.5	-0.65
> O=C(c1ccco1)N1CCN(c2nc3ccccc3s2)CC1
    -1.1	-0.49
> CCOC(=O)NCc1ccc2c(c1)OCO2
    0.15	x
> COc1ccc(-c2[nH]nc3oc(=O)cc(C)c23)cc1
    -0.3	x
> O=C(COC(=O)c1cccc(S(=O)(=O)NCc2ccco2)c1)Nc1ccccc1
    0.1	x
> N#CCCn1cc(C2CC(c3ccccc3)=NNC2=O)c2ccccc21 (centres undefined)
    0.55	-0.58
> O=C(COC(=O)c1ccccc1)NCc1ccc2c(c1)OCO2
    -0.35	x
> Nc1cc(N)nc(SCC(=O)N2c3ccccc3Sc3ccccc32)n1
    -0.3	-0.21
> Cc1[nH]n(-c2ccccc2)c(=O)c1C(=O)c1ccccc1
    x	-0.82
> CC1CN=C(N(C)C(=O)Nc2cccc(Cl)c2)S1 (centres undefined)
    0.45	0.35
> O=C(O)CCCn1cnc2ccccc2c1=O
    -0.05	x
> CC1(C)N=C2C(=[N+]1[O-])CCC/C2=N/O
    -0.35	x
> COc1cc(/C=C2\SC(=O)N(CC(=O)Nc3ccc(C)cc3C)C2=O)cc(OC)c1OC
    x	-0.15
> Cc1nc2c(C)cccn2c1/C(O)=C1\C(=O)C(=O)N(CCN(C)C)C1c1cccnc1 (centres undefined)
    -0.6	-0.87
> O=C(Nc1ccccc1OC(F)F)c1ccccc1
    -0.15	-0.42
> O=C(Nc1ccccn1)c1cc2ccccc2o1
    -1.1	-0.095
> COCC(C)NCc1cccc(Br)c1 (centres undefined)
    0.05	-0.34
> COc1cc2nc(-c3ccccc3)oc(=O)c2cc1OC
    -1.3	7.8
> Cc1cc(C)n(-c2nc(NC(C)C)nc(NC(C)(C)C)n2)n1
    0.05	-0.28
> Cc1cccc(CSc2ncc(-c3cccc(C(F)(F)F)c3)cn2)c1
    x	-0.74

(next part)
SMILES	AID504770	Ba CapD inh
Cc1ccc2c(CN3C(=O)c4ccccc4C3=O)cc(=O)oc2c1	-0.1	x
COc1ccc2oc(=N)c(C(N)=O)cc2c1	-0.2	69
COc1ccccc1OCC(O)CN (centres undefined)	-0.4	x
COc1ccc(Cl)cc1S(=O)(=O)N1CCCCCC1	1.8	-0.68
Cc1nc(N)c(Cc2ccc(Cl)cc2Cl)c(N)n1	1	-0.22
CC(Sc1ccc(Cl)cc1)C(=O)NN=C(c1ccccc1)c1ccccc1 (centres undefined)	x	-0.3
C=C(C#N)CN1CCN(CC(=C)C#N)CC1	-0.7	-0.77
N#CC(C(=O)COc1ccccc1)c1nc2ccccc2[nH]1 (centres undefined)	-0.4	0.99
C=CCN=C1SCC(=O)N1S(=O)(=O)c1ccc(C)cc1	-0.55	x
COc1ccc(C2C(C#N)=C(N)OC3=C2C(=O)CC(C)(C)C3)c(CSc2ccccn2)c1 (centres undefined)	x	0.02
O[C@@H]1C2C3CC4C5C3C1C(c1ccccc1)(C42)[C@H]5O (some centres undefined)	1.1	0.57
CCn1c(C2CCN(S(=O)(=O)c3ccc(OC)cc3)CC2)n[nH]c1=S	x	-0.73
Cc1cccc(N=C2c3ccccc3-c3ncccc32)c1	x	-0.27
COc1cc(NS(=O)(=O)c2cccc(C(F)(F)F)c2)c(Cl)cc1Cl	x	-0.6
CSCc1ccc(C(=O)N2CCN(C(=O)c3ccccc3)CC2)cc1	1	x
C/C(=C\C(=O)c1ccc(Cl)cc1)N1CCOCC1	-0.85	-2.2
CC(=O)NCCn1c(SCc2ccc(C)cc2)nc2ccccc2c1=O	-0.9	-0.4
N#Cc1cc([N+](=O)[O-])ccc1SCc1ccccc1	x	-1
On1ccc2c(Br)cncc21	-1.7	x
O=C(O)CCn1c2ccccc2c2cn[nH]c(=O)c21	-0.05	-0.4
CC(C)(C)c1ccc(C(=O)N/C(=C/c2cccs2)C(=O)N2CCOCC2)cc1	0.6	0.76
N#Cc1ccccc1S(=O)(=O)NC1CCN(c2ccccc2)CC1	x	-0.69
CCCNC(=O)CSc1nnc2n(-c3ccccc3)c(=O)c3ccccc3n12	0.75	x
Cc1ccc(-c2nn(-c3ccccc3)cc2C(=O)N2CCOCC2)cc1	0.8	x
Cc1ccc(C)n1CC(N)=O	2.2	x
Cc1ccc(C)c(-n2c(SCc3cn4ccccc4n3)nnc2-c2cc3sccc3n2C)c1	-0.2	0.015
O=C(NCC12CC3CC(CC(C3)C1)C2)c1cc(-c2ccccc2F)no1	-0.8	-0.53
CC(C)CCNCc1c(C(=O)O)n(Cc2ccccc2)c2ccccc12	0.8	-0.9
CCCCN1C2CCCC1CC(NC(=O)C1CCCCC1)C2 (centres undefined)	-1	x
COCCOc1cc(NS(=O)(=O)c2ccccc2)c(Cl)cc1Cl	x	-0.58
Cc1ccc2c(c1)cc(CN(Cc1ccc3c(c1)OCO3)S(=O)(=O)c1ccccc1)c1nnnn12	-0.05	x
O=C(NCc1ccco1)c1nn2c(C(F)(F)F)cc(-c3ccc(Br)cc3)nc2c1Cl	x	-1.6
O=C(CCC(=O)N1CCc2ccccc2C1)c1ccccc1	0.5	x
CCOc1ccc(N=c2scc(-c3ccc4c(c3)NC(=O)CO4)n2C2CC2)cc1	-0.55	x
O=C(N/N=C/c1ccc(Sc2nnc(-c3ccccc3)n2-c2ccccc2)o1)c1ccccc1[N+](=O)[O-]	x	-0.13
COC(=O)c1ccc2c(=O)[nH]c(COC(=O)c3cnc(C)cn3)nc2c1	-0.35	x
O=S(=O)(c1ccccc1)c1nnn2c1nc(N1CCCC1)c1sccc12	0.8	2.7
Cc1nc2ccccc2c(C)c1C(=O)Nc1ccc(Cl)cc1	0.15	0.2
Cn1c(CNS(=O)(=O)c2ccc3c(c2)OCCO3)nnc1SCc1cccnc1	-0.2	x
CC(=O)Nc1ccc(S(=O)(=O)NCC2CCC(C(=O)NC(C)c3ccc4c(c3)OCCO4)CC2)cc1 (centres undefined)	-1.1	0.52
CC(C)(C)c1ccc(-c2nc3ccccc3s2)cc1	-0.6	2.8
C/S(=N\S(=O)(=O)c1cccc2nonc12)c1ccc(C(F)(F)F)cn1 (centres undefined)	-0.3	0.36
Cc1ccc2c(c1)c1nc3ccccc3nc1n2CC(=O)OC(C)C	2.5	-0.65
CCOC(=O)NC(=O)/C(C#N)=C\NNc1ncc(C(F)(F)F)cc1Cl	x	-0.42
COc1ccc(S(=O)(=O)N2CCC3(CC2)C(=O)NCN3c2ccccc2)cc1OC	x	0.37
Clc1ccc(-c2noc(COc3ccc4c(c3)OCO4)n2)cc1	-0.35	-0.13
CN(C)c1ccc(CNCc2ccco2)cc1	0.7	x
CCOC(=O)C(C)Nc1n[nH]c(=O)[nH]c1=O (centres undefined)	-0.3	x
CC1CN(CCC(=O)Nc2ccc(S(N)(=O)=O)cc2)CC(C)O1 (centres undefined)	-0.3	x
O=C(CSc1nccn1-c1ccc(Cl)cc1)NCCc1ccccc1	-0.3	-0.29

Other entries follow.
SMILES	AID504770	Ba CapD inh
CC(Oc1ccc(Br)cc1)C(=O)NN (centres undefined)	1.5	-0.86
CSC1=C(C#N)C2(CCCCC2)C(c2nc(-c3ccc(C)cc3)cs2)C(N)=N1 (centres undefined)	0	-0.73
CC(=O)c1cc(Br)ccc1OC(=O)c1c(-c2c(Cl)cccc2Cl)noc1C	x	-0.23
CC1SCC(=NOCc2ccccc2)CS1 (centres undefined)	0.05	0.47
Cc1ccc(COn2c(-c3ccccc3)nc3ccc([N+](=O)[O-])cc32)cc1	x	0.55
CCOC(=O)CCSc1nc(N2CCOCC2)c2c(c1C#N)CC(C)(C)OC2	x	-0.3
C=C(C)CNC(=S)NN	-0.05	x
CC1CC2c3cccc(C(=O)O)c3C(=O)N2c2ccc(F)cc21 (centres undefined)	-0.6	-0.33
C[N+]1(Cc2cn3ccccc3n2)CCOCC1	0.5	-0.52
c1ccc(N2CCN(c3c4c(nc5ncnn35)CCC4)CC2)cc1	-0.95	-1.3
Cc1nc2nc(CN)nn2c(C)c1CCC(=O)NCC1CCN(Cc2ccc(F)cc2)CC1	0.2	0.18
CCCOCC(O)CN1CCCCC1 (centres undefined)	-0.05	0.61
O=C(CSc1nnc(SC2CCCC2)s1)c1ccc(Cl)cc1	x	-0.1

Of the compounds above, six have a COOH group.
SMILES	AID504770	Ba CapD inh
COc1ccc(Cl)cc1NC(=O)/C(C)=C\C(=O)O	-0.65	0.18
O=C(O)C1CCCN1C(=O)Nc1ccccc1 (centres undefined)	-0.95	0.35
O=C(O)CCCn1cnc2ccccc2c1=O	-0.05	x
O=C(O)CCn1c2ccccc2c2cn[nH]c(=O)c21	-0.05	-0.4
CC(C)CCNCc1c(C(=O)O)n(Cc2ccccc2)c2ccccc12	0.8	-0.9
CC1CC2c3cccc(C(=O)O)c3C(=O)N2c2ccc(F)cc21 (centres undefined)	-0.6	-0.33
